Bioassay records from PubChem.
Vaccinia mCherry = vaccinia inhibition (mCherry reporter). Vaccinia virus mCherry reporter infection, fluorescence; about a quarter of the inactives have no number. Potency, µM (series often up to 36.5 µM), for inactives: at the top dose activity change, negative = inhibition, actives largely listed as inhibitors. hit rate 0.63% among 310,000; active = well fitted inhibition curve with a large enough effect; inconclusive = small, poorly fitted or top-dose-only effect; inactive = no such curve, though single readings can be large or run the other way; tested in A549 cells; note: nearly all actives have a fitted effect of over 35% in size; inactives centre near -10
VACV Venus inh = vaccinia inhibition (Venus reporter). Vaccinia virus Venus reporter expression, fluorescence. Potency, µM (highest dose often 36.5 µM), without a hit: at the top dose activity change, negative = inhibition, hits mostly inhibitors. hit rate 0.46% among 330,000; active means well fitted inhibition curve with a large enough effect; inconclusive means small, poorly fitted or top-dose-only effect; inactive means no such curve, though single readings can be large or run the other way; tested in A549 cells; note: nearly all actives have a fitted effect of over 30% in size; inactives centre near -10
Starred values were filed as active, the others as inactive; i = inactive; ? = inconclusive; · = not tested or not shown; & = joins results of further samples; [ ] = remark or other dose. % is set by controls: 0 for no effect and ±100 for the full control effect; potency is the fitted concentration of half-maximal effect.

Compound | Vaccinia mCherry | VACV Venus inh
O=C(Nc1ccc(S(=O)(=O)NCc2ccccc2)cc1)C1CCCCC1 | -14% | -15%
CN(C)S(=O)(=O)N1CCN(S(=O)(=O)N(C)C)CC1 | -15% | -7%
O=C(NCCN1C(=O)C2C3C=CC(C3)C2C1=O)N1CCCCC1 (configuration not stated) | -2% | -5%
Nc1nc2nc(-c3ccccc3)cc(C(F)(F)F)c2s1 | ? | -29%
COC(=O)[C@@H](c1ccccc1)N(C)S(=O)(=O)c1cccc(S(=O)(=O)N(C)[C@@H](C(=O)OC)c2ccccc2)c1 | -2% | -19%
O=C(Nc1ccccc1N1CCOCC1)C1CCCO1 (configuration not stated) | -5% | -7%
CCn1cc(CN2CCCC(C(=O)c3cccc(C(F)(F)F)c3)C2)cn1 (configuration not stated) | i | -6%
CN(C(=O)c1cccc(NC(=O)Cc2ccc(NC(=O)C3CCCN(C(=O)C4CC4)C3)cc2)c1)C1CCCC1 (configuration not stated) | i | 0%
C=CCC[C@@H](Cc1ccc(F)cc1)C(=O)OC[C@@H](Cc1c[nH]c2ccccc12)NC(=O)[C@H](CC=C)CC(=O)N(CCO)Cc1ccccc1 | ? | 14µM*
CC(C)NCC(=O)Nc1c2c(nc3ccccc13)CCC2 | -1% | -3%
Cc1nn(CC(=O)NNC(=O)c2cccc(Br)c2)c(C)c1[N+](=O)[O-] | i | -15%
Cc1cc(C(=O)OCC(=O)NCc2ccco2)c(C)n1-c1ccccc1 | ? | ?
Cc1ccc(NC(=O)c2cccc(F)c2)cc1S(=O)(=O)N1CCCCCC1 | i | -11%
Cc1ccc(S(=O)(=O)CC(=O)N2CCN(c3cccc(C(F)(F)F)c3)CC2)cc1 | -8% | -21%
Cc1ccccc1Nc1nc(-c2cccc(Cl)c2)c2c(n1)-c1ccccc1OC2 | -4% | -3%
COC(=O)[C@@H]1CCCN1Cc1ccc2c(c1)CN(Cc1coc3ccccc3c1=O)CCO2 | -4% | 14%
COCCN(C(=O)COC(=O)/C=C/c1cccs1)c1c(N)n(Cc2ccccc2)c(=O)[nH]c1=O | i | -18%
Cc1ccc2nc3c(cc(S(=O)(=O)c4ccccc4)c(=N)n3Cc3ccco3)c(=O)n2c1 | 0% | -8%
Cc1cccc(NC2=CC(=O)OC(C)C2)c1 (configuration not stated) | · | -8%
COC(=O)[C@@]1(Cc2ccc(F)cc2)[C@@H]2[C@@H](CC(=O)[C@H]2CC(=O)C(=O)N(C)C)CN1C(=O)c1ccccc1 | ? | 6%
COc1ccc(C)cc1NC(=S)NC(C)c1ccc(OC)c(OC)c1 (configuration not stated) | -14% | ?
C=C(C)COc1ccc(-c2[nH]ncc2-c2ccc(Br)cc2)c(O)c1 | ? | ?
Fc1ccccc1N1CCN(Cc2cnc(Cl)s2)CC1 | -27% | -18%
O=[N+]([O-])c1cc(CS(=O)(=O)Oc2ccc(Cl)cc2)c(O)c([N+](=O)[O-])c1 | -2% | -22%
CC(OC(=O)C1=Cc2ccccc2OC1)C(=O)NC(C)(C)C (configuration not stated) | -8% | -14%

Copied from above, 3 compounds:
Compound | Vaccinia mCherry | VACV Venus inh
Cc1ccc(NC(=O)c2cccc(F)c2)cc1S(=O)(=O)N1CCCCCC1 | i | -11%
Cc1ccc(S(=O)(=O)CC(=O)N2CCN(c3cccc(C(F)(F)F)c3)CC2)cc1 | -8% | -21%
Cc1ccccc1Nc1nc(-c2cccc(Cl)c2)c2c(n1)-c1ccccc1OC2 | -4% | -3%

Taken from above.
In VACV Venus inh, CN(C(=O)c1cccc(NC(=O)Cc2ccc(NC(=O)C3CCCN(C(=O)C4CC4)C3)cc2)c1)C1CCCC1 (configuration not stated) reads 0%
In Vaccinia mCherry, COc1ccc(C)cc1NC(=S)NC(C)c1ccc(OC)c(OC)c1 (configuration not stated) reads -14%

Next records:
Compound | Vaccinia mCherry | VACV Venus inh
COc1ccc(NC(=O)CN2CCC(C)CC2)c([N+](=O)[O-])c1 | i | -18%
Cn1cccc1/C=N\NC(=O)c1cncc(Br)c1 | -3% | -9%
CCCCCCCCN1[C@@H](CC(=O)OCC)c2cc(C(F)(F)F)ccc2S1(=O)=O | 0% | -8%
CC(=O)N1c2ccccc2CCc2ccc(N)cc21 | i | -10%
COc1ccc(NC(=O)Nc2ccccc2C(N)=O)cc1OC | i | -4%
O=C(Nc1ccccc1)/C(=C/c1cccnc1)NC(=O)c1ccco1 | i | -11%
COc1cccc(CNc2nc3ccccc3n2CCN2CCCCC2)c1OC | -13% | -19%
COc1cc(NCCCn2cnc3c(OC)ncnc32)cc(OC)c1OC | -11% | -9%
COc1cc(O)c(C(=O)c2ccccc2)cc1O | ? | -7%
COc1cc(NS(C)(=O)=O)c(OC)cc1NC(=O)c1cccc(F)c1 | -14% | -5%
O=C(COC(=O)CCc1nc2ccccc2c(=O)[nH]1)Nc1c(Cl)cccc1C(F)(F)F | i | -6%
Cc1nnc(NC(=O)CSc2nnc(CNC(=O)C34CC5CC(CC(C5)C3)C4)n2C2CCCCC2)s1 | ? | -9%
CCC(CC)C(=O)Nc1cc(OC)c(OC)cc1C(=O)O | -4% | -6%
COc1ccc(C)cc1NS(=O)(=O)c1c(C(=O)N2CCC(C)CC2)c(C)n(C)c1C | i | -11%
Cc1ccc2c(c1)C1CN(C)CCC1N2S(=O)(=O)c1cccc(F)c1 (configuration not stated) | ? | -23%
CCCN(CCC)C(=O)c1cc2c(=O)n3cccc(C)c3nc2n1C | i | -11%
COc1ccccc1NC(=O)N(C)C[C@H]1Oc2cc(Br)ccc2S(=O)(=O)N([C@H](C)CO)C[C@H]1C | ? | -11%
O=C(O)CC1S/C(=N/N=C/c2ccc(Br)cc2)N(c2ccccc2)C1=O (configuration not stated) | 0% | 3%
CCOc1ccc(OCCOC(=O)CN2C(=O)NC3(CCCC3)C2=O)cc1 | -4% | -19%
CC1(c2ccccc2)NC(=O)N(CC(=O)Nc2ccc(C(N)=O)cc2)C1=O (configuration not stated) | -17% | 15%
CN(CC(=O)Nc1ccc(F)c(F)c1F)C(=O)c1cc(-c2ccncc2)nc2ccccc12 | -20% | -16%
CCOc1ccc(C(C)=O)cc1CSc1nc2nc(C)cc(C)n2n1 | -15% | -8%
O=C(OCn1nnc2ccccc2c1=O)c1ccc(N2CCOCC2)c([N+](=O)[O-])c1 | -9% | -10%
Cc1sc2nc(CSc3cccc(C(F)(F)F)c3)[nH]c(=O)c2c1C | -9% | -9%
COc1ccc(-n2nnnc2CNC(=O)C(=O)c2c(C)[nH]c3ccccc23)cc1 | -5% | -1%
O=C(NCc1ccccc1)C1C(c2ccc3c(c2)OCO3)=Nc2ccccc2N1C(=O)c1cccc(C(F)(F)F)c1 (configuration not stated) | ? | -23%
O=C(Nc1nc2ccc(F)cc2s1)c1cccs1 | -8% | -7%
O=C(Nc1ccc(Cl)cc1F)c1cnc2sc(N3CCOCC3)nn2c1=O | -18% | -10%
CC1=NN(C(=O)c2ccc(Cn3nc(C)c(Br)c3C)cc2)C(O)(C(F)(F)F)C1 (configuration not stated) | i | -8%
Cc1nnc(NC(=O)c2nc(S(=O)(=O)Cc3ccccc3)ncc2Cl)s1 | 8% | -1%&10%
COc1ccc2oc(=O)c(C(=O)NC(C)c3ccccc3)cc2c1 (configuration not stated) | -8% | 4%
CCC(Oc1ccccc1)C(=O)Nc1ccccc1OC (configuration not stated) | i | -6%
Cc1ccnc(NS(=O)(=O)c2ccc(NC(=O)C3CC=CCC3C(=O)O)cc2)n1 (configuration not stated) | 6% | -1%
COc1ccc(S(=O)(=O)N(CC(=O)Nc2cccnc2)c2ccc(C)cc2)cc1OC | -8% | 4%
CC1Cc2cc(S(=O)(=O)CCC(=O)NCc3ccc(Cl)cc3)ccc2N1C(=O)C1CC1 (configuration not stated) | -28% | -18%
OC(CNCCc1c[nH]c2ccccc12)c1ccccc1 (configuration not stated) | -17% | -8%
COc1ccc(-n2c(/C=C(\C)O)nc(=O)c3c(C)cc(C)nc32)cc1 | -18% | -10%
c1ccc2ncccc2c1 | 4%&26% | -8%&-5%
O=C1CCCN2N=C(SCC(=O)Nc3ccc([N+](=O)[O-])cc3)SC2=N1 | -12% | 1%
CCNC(=S)NNC(=O)c1ccc2ncccc2c1 | i | -11%
O=Cc1cn(Cc2ccc([N+](=O)[O-])cc2)c2ccccc12 | -11% | -27%
COc1ccc(-c2noc(CSc3nnc(C)n3-c3ccc(F)cc3)n2)cc1 | -10% | -5%
O=C(CN1CCN(c2ccccc2)CC1)NC(=O)NCc1ccco1 | -8% | -14%
Cc1ccc2oc(-c3ccc(C)c(NC(=O)C(C)(C)Oc4ccc(Cl)cc4)c3)nc2c1 | -16% | -19%
COc1c(Cl)c(=O)oc2ccc(Cl)cc12 | -30% | -21%
NC(=O)C1CCN(c2cc(Cl)nc(N)n2)CC1 | -12% | 5%
Cc1ccccc1Nc1nc2nonc2nc1N1CCOCC1 | i | -15%
Cc1nc2ccccc2nc1N1CCOCC1 | · | -4%
COC(=O)[C@H](C(C)C)N(Cc1ccccc1)S(=O)(=O)CCNC1CCCC1 | i | -22%
O=C(CN(C(=O)CCC(=O)Nc1nccs1)c1ccc(F)c(Cl)c1)NCc1ccco1 | · | -23%

(list continues)
Compound | Vaccinia mCherry | VACV Venus inh
Cn1c(N)c(C(=O)COC(=O)c2ccccc2C(=O)c2ccc(Cl)cc2)c(=O)n(C)c1=O | -7% | 6%
CC(=O)Nc1ccc(S(=O)(=O)NC2=NCN(CCOC(=O)c3ccccc3)CN2)cc1 | · | -19%
CC(OC(=O)c1ccccc1C(=O)N(C)Cc1ccccc1)C(=O)NC1(C#N)CCCCC1 (configuration not stated) | -10% | -3%
Cc1nn(Cc2c(F)c(F)c(F)c(F)c2F)c(C)c1NC(=O)c1ccc(COc2ccc(Cl)cc2Cl)o1 | ? | ?
OCc1ccccc1-c1cnc2cccnn12 | -12% | -2%
CC(C)Sc1nnc(Cn2c(=O)sc3ccccc32)n1-c1ccccc1 | -2% | -5%
OCCCN=C1CCCc2c1[nH]c1ccc(Cl)cc21 | -13% | -9%
O=C(NC1CC1)c1ccc(COc2ccc(F)cc2)o1 | · | -5%
C/C(=N\NC(N)=O)C1CC(Cc2ccccc2)C(=O)O1 (configuration not stated) | -11% | -1%
Nc1ccc(C(=O)N2CCCC2)cc1CS(=O)(=O)c1ccc(Cl)cc1 | -7% | -20%
COc1cc(C(=O)NCc2nnc(SCC(=O)N3CCCc4ccccc43)o2)cc(OC)c1OC | -11% | -2%
CCc1ccccc1N(CC)C(=O)Cn1nc(Cc2ccncc2)c2ccccc2c1=O | -16% | -14%
Cc1ccc(Cl)cc1N1CCN(C(=O)c2cccn3c(=O)c4cc(Cl)ccc4nc23)CC1 | -8% | 1%
N#CC1=C(N)Oc2nc(-c3ccccc3)[nH]c2C1c1cccnc1 (configuration not stated) | · | 5%
COCCNC(=O)C(c1cccs1)N(Cc1ccccc1)C(=O)Cn1nnc2ccccc21 (configuration not stated) | -15% | -4%
CCN(CC)CCc1nc(-c2ccccc2)no1 | -4% | -14%

Full records, looked up by structure. Values in the order: Vaccinia mCherry, VACV Venus inh
Nc1ccc(C(=O)N2CCCC2)cc1CS(=O)(=O)c1ccc(Cl)cc1 in the list: -7%, -20%
CCc1ccccc1N(CC)C(=O)Cn1nc(Cc2ccncc2)c2ccccc2c1=O in the list: -16%, -14%
N#CC1=C(N)Oc2nc(-c3ccccc3)[nH]c2C1c1cccnc1 (configuration not stated) in the list: ·, 5%
C/C(=N\NC(N)=O)C1CC(Cc2ccccc2)C(=O)O1 (configuration not stated) in the list: -11%, -1%
COc1cc(C(=O)NCc2nnc(SCC(=O)N3CCCc4ccccc43)o2)cc(OC)c1OC in the list: -11%, -2%

New compounds follow
Compound | Vaccinia mCherry | VACV Venus inh
COCCNc1oc(/C=C/c2ccccc2)nc1C#N | -13% | -16%
O=C(Cc1ccc(Cl)cc1)Nc1cc(S(=O)(=O)N2CCOCC2)ccc1N1CCCC1 | -9% | 1%
CC(C)(C)OC(=O)NCCC(=O)N/N=C/c1ccc2ncccc2c1 | -6% | -19%
CCN(C(=O)CCC(=O)N(CC)c1ccccc1)c1ccccc1 | i | -4%
C[C@H]1CN([C@@H](C)CO)C(=O)Cc2cc(NC(=O)CCN3CCOCC3)ccc2O[C@@H]1CN(C)Cc1ccc(Oc2ccccc2)cc1 | -16% | -9%
Cc1ccc(-c2onc3ccc(C=O)cc23)cc1 | ? | -21%
Cc1ccc(N(Cc2cccs2)C(=O)c2ccccc2)cc1 | 0% | 6%
COc1ccc(NC(=O)C2CCCN(c3nccc(C)n3)C2)cc1 (configuration not stated) | i | 2%
CCOc1ccc(NCCC(O)c2ccc(F)cc2)cc1 (configuration not stated) | 0% | -1%
COc1ccccc1-n1cc(CN2CCN(CC(C)C)C(CCO)C2)cn1 (configuration not stated) | i | -8%
COc1ccc(C(NC(=O)COc2ccc(C#N)cc2)c2ccc(OC)cc2)cc1 | 33%[activator] | 6%
CC(/C=C\C=C\c1ccccc1)=N\NC(=O)c1cncc(Br)c1 | -18% | 1%
N#C/C(=C(/O)c1ccc(Cl)cc1)c1nc2ccccc2[nH]1 | ? | -9%
COc1ccccc1C(=O)NCCn1cc(SCc2ccccc2Cl)c2ccccc21 | -23% | -22%
O=C(CSc1nc(-c2ccco2)cc(C(F)(F)F)n1)NCC1CCCO1 (configuration not stated) | -3% | 0%
O=C(CSc1nnnn1-c1ccc2c(c1)CCC2)NCc1cccs1 | -5% | -15%
CC1(C)CC(C(=O)N2CCOc3ccc(CN4CCC(Oc5cccnc5)CC4)cc3C2)CCO1 (configuration not stated) | -1% | -17%
COC(=O)c1ccc2nc(-c3ccc(F)cc3)c(Cc3cccc(Cl)c3)n2c1 | -5% | 1%
NC(=O)CSc1ncnc2c1nnn2Cc1ccc(F)cc1 | -10% | 5%
